EPAC1 agonist – Validation qHTS for agonist of cAMP-regulated guanine nucleotide exchange factor 3 (EPAC1); EPAC1 Rap1b BODIPY-GDP exchange, fluorescence; Potency, µM, for the others: max response, positive = active, actives largely listed as activators; actives 1% (n = 16,000); AID 1645883, 2021; active = well fitted activation curve with a large enough effect; inconclusive = small, poorly fitted or top-dose-only effect; inactive = no such curve, though single readings can be large or run the other way;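 also: nearly all actives have a fitted effect of over 70% in size; series mostly up to about 76 or 150 µM; scaled to a cAMP control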
Target sequence (O95398 whole entry, looked up): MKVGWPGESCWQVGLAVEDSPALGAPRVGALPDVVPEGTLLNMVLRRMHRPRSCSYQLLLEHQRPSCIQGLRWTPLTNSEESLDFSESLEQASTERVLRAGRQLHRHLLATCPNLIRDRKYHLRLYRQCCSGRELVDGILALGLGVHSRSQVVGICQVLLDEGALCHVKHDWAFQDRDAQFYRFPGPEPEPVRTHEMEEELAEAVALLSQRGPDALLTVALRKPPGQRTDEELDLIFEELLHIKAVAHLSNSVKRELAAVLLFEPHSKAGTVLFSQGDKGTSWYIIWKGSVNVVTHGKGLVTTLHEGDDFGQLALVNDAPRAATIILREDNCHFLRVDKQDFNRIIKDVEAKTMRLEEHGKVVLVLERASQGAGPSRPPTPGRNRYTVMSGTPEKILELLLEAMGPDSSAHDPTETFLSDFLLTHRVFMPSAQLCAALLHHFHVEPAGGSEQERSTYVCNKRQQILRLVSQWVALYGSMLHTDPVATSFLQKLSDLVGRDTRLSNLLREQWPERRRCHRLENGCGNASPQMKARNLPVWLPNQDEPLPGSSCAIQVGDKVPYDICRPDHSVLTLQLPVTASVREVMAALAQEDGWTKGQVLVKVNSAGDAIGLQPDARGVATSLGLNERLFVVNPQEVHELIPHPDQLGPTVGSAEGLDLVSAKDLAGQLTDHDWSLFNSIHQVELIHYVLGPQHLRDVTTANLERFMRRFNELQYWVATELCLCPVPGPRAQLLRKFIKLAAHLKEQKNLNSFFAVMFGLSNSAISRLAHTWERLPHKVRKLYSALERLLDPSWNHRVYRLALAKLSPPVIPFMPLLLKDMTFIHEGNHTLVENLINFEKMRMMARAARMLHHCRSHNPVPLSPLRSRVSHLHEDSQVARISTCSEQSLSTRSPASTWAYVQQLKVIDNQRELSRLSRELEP
The depositor's hits bear a star; ? = inconclusive; & = joins results of further samples; ! = not active in a repeat; [ ] = remark or other dose. % is scaled to controls: 0 for no effect and ±100 for the full control effect; potency is read from the fitted curve at half-maximal effect. A portion of the library (hit frequency here may not be typical).

SMILES	EPAC1 agonist
O=c1cc(-c2ccc(O)c(O)c2)oc2cc(OC3OC(CO)C(O)C(O)C3O)cc(O)c12 (stereo unspecified)	-18.5%
CC1O[C@@H](O[C@@H]2C(O)C[C@H](O[C@@H]3C(O)C[C@@H](OC4CC[C@@]5(C)C6CC(O)[C@@]7(C)C(C8=CC(=O)OC8)CC[C@@]7(O)C6CC[C@@H]5C4)OC3C)OC2C)CC(O)[C@H]1O (stereo partly specified)	?
O=C(O)CC/C=C\CC[C@H]1[C@@H](N2CCCCC2)[C@@H](O)C[C@@H]1OCc1ccc(-c2ccccc2)cc1	7.5%
C#CCN1C(C)=C(C(=O)OC)C(c2cccc([N+](=O)[O-])c2)C(C(=O)OCC)=C1C (stereo unspecified)	10.3%
CC(=O)Oc1cccc(C(=O)O)c1OC(C)=O	-2.5%
CN(Cc1ccco1)c1ncnc2ccc(-c3ccccc3Cl)cc12	?
C=C1C(=O)OC2CC1C(OC(C)=O)CC(C)=CCCC(C)=CCC[C@@]2(C)O (stereo partly specified)	16.1%
COc1cc(C[C@H]2C(=O)OC[C@@H]2Cc2ccc(OC)c(OC)c2)ccc1O	5.1%
CO/N=C(/C(=O)N[C@@H]1C(=O)N2C(C(=O)OCOC(=O)C(C)(C)C)=C(C)CS[C@H]12)c1csc(N)n1	7.4%
CC(O)(C(=O)Nc1ccc(S(=O)(=O)c2ccccc2)cc1)C(F)(F)F (stereo unspecified)	-6.9%&-2.7%
CC(C)[C@H]1COCCS(=O)(=O)N1Cc1cccc(Cl)c1	-28.1%
O=C(c1csnn1)N1CCC[C@@]2(CCN(c3ccccn3)C2)C1	-67.2%[inhibitor]
Cc1cnc(-n2ncc(C(=O)N(C)CC3CCCN(C)C3)c2C2CC2)nc1-c1cccs1 (stereo unspecified)	15.3%
CCc1ccc(S(=O)(=O)O)cc1	-3.0%
NCCNS(=O)(=O)c1cccc2c(Cl)cccc12	-9.0%&6.4%
COc1cc(-c2cccc(Cl)c2)cc2c1OCCN(C(=O)CCn1ccc(C)n1)C2	-0.2%
COCCN(C)C(=O)c1cnn(-c2ncc3c(n2)-c2ccccc2CCC3)c1C1CC1	-10.4%
Cc1ccccc1-c1ccc2ncnc(N(C)C)c2c1	2.8%
Cc1csc(C(C)N(C)C(=O)c2cc(NC(=O)C3CCC3)c3c(c2)nc(-c2ccncc2)n3C)n1 (stereo unspecified)	-2.2%
CCCCC[C@H]1CN(C2CCCCC2)C(=O)[C@@H]1CC(=O)NCc1ccc(OC)cc1	-76.4%[inhibitor]
Cc1cccc(CNC(=O)c2cnn(-c3nccc(-c4cc5ccccc5o4)n3)c2C2CC2)n1	0.8%
CC(C)c1cc(C(=O)N2CCOc3ccc(CN4CCC(Oc5cccnc5)CC4)cc3C2)n[nH]1	1.6%
COCc1c(C(=O)N2CCCC(C)C2)cnn1-c1nccc(-c2cc(C)sc2C)n1 (stereo unspecified)	5.7%
OCC1O[C@@H](OC2C(O)C(CO)O[C@@]2(CO)O[C@@H]2OC(CO)C(O)C(O)C2O)C(O)C(O)C1O (stereo partly specified)	9.1%
O=C(c1cnccn1)N1CCC2(CC1)CCN(c1ccncc1)CC2	-60.4%[inhibitor]
Next structures follow.
SMILES	EPAC1 agonist
CC(=O)NCCNc1ncncc1-c1ccccc1C(F)(F)F	17.5%
CCOC(=O)Oc1c(OC)cc(C(=O)O[C@@H]2C[C@@H]3CN4CCc5c([nH]c6cc(OC)ccc56)[C@H]4C[C@@H]3[C@H](C(=O)OC)[C@H]2OC)cc1OC	31.6µM*!
CC1CN(CC(=O)NCCc2ccncc2)Cc2ccccc2O1 (stereo unspecified)	13.8%
COc1ccc(-c2nc3cnc(OC)nc3n(CCc3ccccc3)c2=O)cc1	-14.1%
CC(C1OC(C)(C)C(O)C1O)C1CC[C@@]2(C)C3=CCC4C(C)(C)C(=O)CC[C@]4(C)C3CC[C@@]12C (stereo partly specified)	-59.8%[inhibitor]
CC(C)(C)NC[C@H](O)COc1cccc2[nH]c(=O)[nH]c12	-15.3%
CCCCCCCC[N+](C)(C)CCCCCCCC	19.7%&-70.0%
O=C1c2ccccc2C(=O)C1c1ccc(Cl)cc1	-5.2%
Cc1ccc(CNc2ncnc3sc(C(=O)N4CCCC(C(N)=O)C4)c(C)c23)o1 (stereo unspecified)	-15.7%
O=C1CCN(Cc2cccn2-c2ccccn2)CCN1Cc1ccccc1C(F)(F)F	-8.8%
C[N+](C)(C)CCOP(=O)(O)OP(=O)([O-])OC[C@H]1O[C@@H](n2ccc(N)nc2=O)[C@H](O)[C@@H]1O	0.8%&-3.6%&-7.6%
Cn1cccc1C(=O)N1CCC2(CCN(Cc3nccs3)CC2)CC1	-39.4%[inhibitor]
COc1ccc(CN2CCC3(CCC(CNC(=O)c4ccco4)O3)CC2)c(OC)c1C (stereo unspecified)	1.1%
O=c1cnc2cnc(N3CCOCC3)nc2n1Cc1cccs1	-35.0%[inhibitor]
CC1CCC(=O)N(CCC#N)CC1 (stereo unspecified)	3.4%
N#C/C(=C\c1ccc(O)c(O)c1)C(=O)NCc1ccccc1	-3.7%&-9.8%&8.3%
COc1ccc(-c2nc3cnc(N4CCNCC4)nc3n(Cc3ccc(F)cc3)c2=O)cc1	-81.1%[inhibitor]
COc1ccccc1CNc1ccnc(-c2ccoc2)n1	-2.8%
CN(Cc1ccco1)c1ncnc2ccc(-c3cccc(C#N)c3)cc12	?
O=C(C[n+]1cccc(Br)c1)c1ccc(-c2ccccc2)cc1	?
CC(C)CSc1nnc(CNC(=O)c2ccccn2)n1C	-18.2%
Cc1ccc(S(=O)(=O)NCl)cc1	-5.0%
CN=C1N[C@H](c2ccccc2)N(c2ccccc2)S1	4.8%
O=C1Nc2ccc(I)cc2/C1=C/c1cc(Br)c(O)c(Br)c1	-9.3%&-16.5%&-0.5%
CC(C)(C)c1ccc(S(=O)(=O)/C=C/C#N)cc1	6.1%

4 of the compounds above, with each value named:
> COc1ccc(-c2nc3cnc(N4CCNCC4)nc3n(Cc3ccc(F)cc3)c2=O)cc1
  EPAC1 agonist: -81.1%[inhibitor]
> COc1ccccc1CNc1ccnc(-c2ccoc2)n1
  EPAC1 agonist: -2.8%
> CN(Cc1ccco1)c1ncnc2ccc(-c3cccc(C#N)c3)cc12
  EPAC1 agonist: ?
> O=C(C[n+]1cccc(Br)c1)c1ccc(-c2ccccc2)cc1
  EPAC1 agonist: ?

Next section.
SMILES	EPAC1 agonist
Cc1csc[n+]1CCC1CCCCC1	?
COc1cc2nc(CN(CCO)C3CS(=O)(=O)CC3O)nc(N3CCCCC3)c2cc1OC (stereo unspecified)	2.9%
COc1ccc(NC(=O)N2CCC3(CC2)CCN(C(=O)c2csnn2)CC3)cc1	-69.8%[inhibitor]
CCCCCCCCCCOCCC(=O)O	-9.6%
COc1ccccc1-c1nc(NCc2cccnc2)c2ccccc2n1	-20.6%
CC(C)(C)C(=O)OCOP(=O)(COCCn1cnc2c(N)ncnc21)OCOC(=O)C(C)(C)C	-6.5%
CCc1ncnc2cc(OC)c(OC)cc12	5.5%
O=C(c1ccc(N2CCC(NCCCn3ncc4ccccc43)CC2)cc1)N1CCc2ccccc2C1	2.8%
COCCn1c(=O)c(-c2cn(C)c3ccccc23)nc2cnc(Oc3cccc(Cl)c3)nc21	-19.6%
COc1cc2c(cc1OC)[C@@H]1C(=O)c3ccc4c(c3O[C@@H]1CO2)C=CC(C)(C)O4	9.3%
CN1CCN(c2ncnc3ccc(-c4ccc(C(=O)N(C)C)cc4)cc23)CC1	-9.7%
COCC(=O)N1CCC2(CC1)CN(c1ccncc1)C2	-48.7%[inhibitor]
COCCNc1cc(-c2ccccc2C(F)(F)F)ncn1	-1.8%
CCCn1c(=O)c2[nH]c(C3CCCC3)nc2n(CCC)c1=O	-1.2%&-10.5%&-32.6%&-4.8%
Cc1ccc(SCCN2CCC(C)CCC2=O)cc1 (stereo unspecified)	14.5%
CC(C)OC(=O)C(C)(C)Oc1ccc(C(=O)c2ccc(Cl)cc2)cc1	11.9%&7.6%&-12.0%
c1coc(CNc2ncnc3nc[nH]c23)c1	3.9%&5.9%
CS(=O)(=O)OCCCNCCCOS(C)(=O)=O	-18.4%
Cc1cc(O)cc2c1O[C@](C)(CCC[C@H](C)CCC[C@H](C)CCCC(C)C)CC2	-23.5%&-59.1%
CN(C)CCCN1c2ccccc2CCc2ccc(Cl)cc21	-2.8%&18.6%&0.0%&-22.9%
COc1cccc(C(=O)NCC2Cc3cccc(-c4cccnc4)c3O2)c1 (stereo unspecified)	4.7%
O=C/C=C/c1ccc(O)cc1	16.4%
CN(C)c1ncc2nc(-c3cc(F)cc(F)c3)c(=O)n(Cc3ccc(F)cc3)c2n1	-19.9%
O=C(Nc1cccc(F)c1)N1CC2(CCN(C(=O)c3cc(C(F)(F)F)cc(C(F)(F)F)c3)CC2)C1	-73.1%[inhibitor]
CN(C)c1ncc2nc(-c3cc(F)cc(F)c3)c(=O)n(Cc3cccs3)c2n1	112µM*
(cont.)
SMILES	EPAC1 agonist
N#CCCn1c(=O)c(-c2ccccc2)nc2cnc(Oc3ccccc3)nc21	14.9%
COc1ccc(SCCN2CC[C@@H](O)CCC2=O)cc1	?
COc1cc(OC)c2c(c1)OC(c1ccccc1)CC2=O (stereo unspecified)	10.9%
COc1ccc(Oc2ncc3nc(CCc4ccccc4)c(=O)n(C4CC4)c3n2)cc1	-21.0%
Cc1cc2c(OCC(CNC(C)(C)C)OC(=O)c3ccccc3)cccc2[nH]1 (stereo unspecified)	3.1%
CC(C)CN1CCCC2(CCN(C(=O)c3cccc(F)c3)CC2)C1	-30.0%
COCCn1c(=O)c(-c2cccc(C#N)c2)nc2cnc(Oc3ccc(OC)cc3)nc21	3.5%
COCCn1c(=O)c(-c2cn(C)c3ccccc23)nc2cncnc21	-107.8%[inhibitor]
Cc1c(C(=O)N2CC3CCC2C3)sc2ncnc(NCc3ccco3)c12 (stereo unspecified)	-4.8%
O=c1cc(CO)occ1O	-1.8%&-6.1%&-11.3%
O=C1OC(=O)C2C3CCC(O3)C12 (stereo unspecified)	0.3%&-0.9%&-7.0%
N[C@H](C(=O)O)c1ccc(O)c(C(=O)O)c1	-12.9%&-14.2%
COC(=O)C1CCN(Cc2ccc3c(c2)CN(C(=O)c2cc(C4CC4)on2)CCO3)CC1	-4.4%
O=c1c(O)c(-c2ccc(O)c(O)c2)oc2ccccc12	-20.4%
COC(=O)[C@@H]1CCCN1Cc1ccc2c(c1)CN(Cc1cccn1-c1ccc(Cl)cn1)CCO2	3.8%
COC(=O)c1ccc(C(=O)NCC2Cc3cccc(-c4ccc(C(=O)OC)cn4)c3O2)cc1 (stereo unspecified)	1.0%
O=C(/C=C/c1ccc(O)cc1)c1ccc(O)cc1O	-4.2%&-0.1%&8.5%
Nc1nc2c(cnn2CCc2ccccc2)c2nc(-c3ccco3)nn12	-8.7%
CC[C@]1(O)C[C@@H]2CN(CCc3c([nH]c4ccccc34)[C@](C(=O)OC)(c3cc4c(cc3OC)N(C)[C@H]3[C@](O)(C(=O)OC)[C@@H](C(=O)OC)[C@@]5(CC)C=CCN6CC[C@@]43[C@@H]65)C2)C1	3.2%
CC(C)[C@H](NC(=O)CNC(=O)OC(C)(C)C)C(=O)N[C@H](C=O)C(C)C	-0.8%
COC1=CC(=O)C=C(OC)C1=O	6.3%
Nc1nc2c(ncn2[C@@H]2O[C@H](COP(=O)(O)OP(=O)(O)O)[C@@H](O)[C@H]2O)c(=O)[nH]1	-15.4%
CN[C@@H]1[C@@H](O)[C@@H](O[C@@H]2[C@@H](O)[C@H](O[C@H]3O[C@H](CN)[C@@H](O)[C@H](O)[C@H]3O)[C@@H](N)C[C@H]2NC(=O)C(O)CN)OC[C@]1(C)O (stereo partly specified)	4.8%
CN(C)c1ccnc(-c2ccccc2C(F)(F)F)n1	-4.7%
COCC1CCCN(Cc2ccc3c(c2)CN(C(=O)c2ccc(-c4ccc(C)o4)cc2)CCO3)C1 (stereo unspecified)	-4.0%

Next part, starting with the last 6 of the part before.
SMILES	EPAC1 agonist
CC(C)[C@H](NC(=O)CNC(=O)OC(C)(C)C)C(=O)N[C@H](C=O)C(C)C	-0.8%
COC1=CC(=O)C=C(OC)C1=O	6.3%
Nc1nc2c(ncn2[C@@H]2O[C@H](COP(=O)(O)OP(=O)(O)O)[C@@H](O)[C@H]2O)c(=O)[nH]1	-15.4%
CN[C@@H]1[C@@H](O)[C@@H](O[C@@H]2[C@@H](O)[C@H](O[C@H]3O[C@H](CN)[C@@H](O)[C@H](O)[C@H]3O)[C@@H](N)C[C@H]2NC(=O)C(O)CN)OC[C@]1(C)O (stereo partly specified)	4.8%
CN(C)c1ccnc(-c2ccccc2C(F)(F)F)n1	-4.7%
COCC1CCCN(Cc2ccc3c(c2)CN(C(=O)c2ccc(-c4ccc(C)o4)cc2)CCO3)C1 (stereo unspecified)	-4.0%
COc1ccc(CN2CC[C@H]3C=CC[C@@H](C(=O)N4CCN(c5ccccc5)CC4)[C@H]3C2=O)cc1OC	0.9%
COc1cccc(-c2ccc3ncnc(NCc4ccccc4)c3c2)c1	?
CN1CCc2cccc3c2[C@@H]1Cc1ccc(O)c(O)c1-3	6.7%
COC(=O)c1c(OCc2ccccn2)cc(=O)n2c1CCN(C(=O)c1cc(C(C)C)nn1C)CC2	20.5%
Cn1nc(C(=O)NCCN2Cc3ccccc3OC(c3ccsc3)C2)c2ccccc2c1=O (stereo unspecified)	-13.8%
Oc1cc(O)c2c(c1)O[C@H](c1ccc(O)c(O)c1)[C@H](O)C2	10.3%
COc1ccc2c(c1)CC[C@@H]1[C@@H]2CC[C@]2(C)[C@@H](NCCCCCCN3C(=O)C=CC3=O)CC[C@@H]12	-3.5%
Nc1ccc(S(=O)(=O)Nc2nccs2)cc1	-11.9%&6.3%
COC1=C[C@@H](C)C2CC3OC(=O)C[C@H]4C(C)=C(OC)C(=O)C([C@@]2(C)C1=O)[C@@]34C (stereo partly specified)	5.7%
CCOC(=O)c1c[nH]c2nc(C)ccc2c1=O	5.4%
O=C(O)c1ccc2nc(-c3ccccc3)c(-c3ccccc3)nc2c1	-6.0%
O=c1c(-c2cccs2)nc2cnc(Oc3cccc(Cl)c3)nc2n1C1CC1	6.3%
